Screening data (PubChem)
MbtI inh = MbtI salicylate synthase inhibitors, primary screen, biochemical, fluorescence intensity; purified MbtI enzyme, fluorescence intensity read-out; P9WFX0; inhibition, %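 (about 17 µg/mL by stock and volumes)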; 0.89% of 100,000 active;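 active = above 50% in both replicates, above 80% if mildly self-fluorescent; inactive = the rest, strongly fluorescent compounds included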;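 note: 0% = mean of negative and 100% = mean of positive controls; one replicate is shown; some compounds called inactive have numbers as strong as hits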
Target sequence (P9WFX0 whole entry, looked up): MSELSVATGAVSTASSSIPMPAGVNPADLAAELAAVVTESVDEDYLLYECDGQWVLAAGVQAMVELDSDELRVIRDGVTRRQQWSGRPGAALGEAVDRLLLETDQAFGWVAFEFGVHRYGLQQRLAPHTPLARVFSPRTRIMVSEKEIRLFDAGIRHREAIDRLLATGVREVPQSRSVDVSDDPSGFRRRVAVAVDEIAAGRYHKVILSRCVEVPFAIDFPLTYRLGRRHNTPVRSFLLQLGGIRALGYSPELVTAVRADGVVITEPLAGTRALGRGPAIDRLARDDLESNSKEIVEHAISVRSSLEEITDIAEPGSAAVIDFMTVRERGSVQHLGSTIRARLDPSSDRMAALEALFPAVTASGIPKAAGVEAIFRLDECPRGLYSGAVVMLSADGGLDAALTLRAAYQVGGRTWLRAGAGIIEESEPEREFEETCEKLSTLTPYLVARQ
Mtb MenB inh = M. tuberculosis MenB inhibitors, primary screen, biochemical, absorbance; MenB enzyme assay, absorbance read-out; some hits fall short of the stated cut; inhibition, %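 (about 12 µg/mL by stock and volumes)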; 0.43% of 100,000 active; 1,4-dihydroxy-2-naphthoyl-CoA synthase (Mycobacterium tuberculosis (strain ATCC 25618 / …;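 active = mean of two replicates above 30%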;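 note: 0% = no compound and 100% = wells with inactive enzyme; the first replicate is given; strong numbers were not always called active; inactives centre near -10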
PV pol inh = poliovirus RdRp elongation inhibitors, primary screen, biochemical, fluorescence polarization, total intensity; 0.66% of 150,000 active; poliovirus polymerase elongation; hits give low values; Genome polyprotein (Poliovirus type 1 (strain Mahoney)), P03300; AID 588519, 2011; % elongation, % (compound at 16.7 µg/mL); in the data active = % elongation below about 90%; note: some results filed as inactive read as strong as hits
Target sequence (P03300 1749-2209 limits assumed): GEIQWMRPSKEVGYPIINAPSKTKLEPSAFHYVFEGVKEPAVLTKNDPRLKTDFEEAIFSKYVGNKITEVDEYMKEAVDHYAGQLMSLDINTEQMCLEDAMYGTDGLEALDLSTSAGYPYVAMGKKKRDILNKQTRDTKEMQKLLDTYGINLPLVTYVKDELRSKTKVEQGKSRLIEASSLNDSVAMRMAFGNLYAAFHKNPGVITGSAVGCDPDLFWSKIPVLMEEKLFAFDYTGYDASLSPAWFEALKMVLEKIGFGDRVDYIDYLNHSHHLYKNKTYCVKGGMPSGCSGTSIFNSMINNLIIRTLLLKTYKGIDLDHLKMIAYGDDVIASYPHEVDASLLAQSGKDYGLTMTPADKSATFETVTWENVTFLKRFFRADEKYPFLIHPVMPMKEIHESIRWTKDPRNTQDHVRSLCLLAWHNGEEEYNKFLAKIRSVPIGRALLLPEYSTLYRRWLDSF
PV pol inh intensity = also measured in PV pol inh; calls as there; % elongation; measured here: total intensity read-out; formula for this scale not given here;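 total fluorescence in place of polarization; lower means less elongation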
Numbers without * were called inactive; / = no result given.

Abbreviations – A = MbtI inh; B = Mtb MenB inh; C = PV pol inh; D = PV pol inh intensity
CCOCC(=O)OCc1cc(=O)oc2cc(C)c(Cl)cc12
  A = -12 | B = -33 | C = 102 | D = 111

O=S(=O)(c1ccc(Cl)cc1)c1ccc(NCCO)cc1
  A = 38 | B = / | C = 98 | D = 91

CCN(CC)c1ccc(NS(=O)(=O)c2ccc(C)cc2)cc1
  A = 3 | B = -17 | C = 103 | D = 107

O=c1c(Cl)c(O)cnn1C1CCCCC1
  A = -3 | B = -9 | C = 100 | D = 103

CC(=O)n1c2ccccc2c2nc(Nc3ccccc3)sc21
  A = -8 | B = -4 | C = 100 | D = 100

C=CCNC(=O)CN1CCN(C)CC1
  A = 3 | B = 20 | C = 99 | D = 102

CSc1cccc(N2C(=O)C3CC=C(C)CC3C2=O)c1 (stereo unspecified)
  A = -8 | B = 10 | C = 112 | D = 111

CCOC(=O)c1c(C)oc2nc[nH]c(=O)c12
  A = -2 | B = 8 | C = 95 | D = 150

CCCn1c(Nc2nc3ccccc3n2C)nc2ccccc21
  A = 15 | B = -70 | C = 102 | D = 102

COC(=O)c1ccc(C(=O)OC)c(NC(=O)c2ccccc2)c1
  A = / | B = -5 | C = 102 | D = 106

The list continues:
Abbreviations – A = MbtI inh; B = Mtb MenB inh; C = PV pol inh; D = PV pol inh intensity
Cc1cc(C)n(C(=O)CCCC(=O)n2nc(C)cc2C)n1
  A = -2 | B = / | C = 103 | D = 99

Nc1ccccc1S(=O)(=O)NCC(=O)O
  A = 10 | B = 22 | C = 103 | D = 102

O=C1OCCC1Sc1nnc(-c2cccs2)o1 (stereo unspecified)
  A = -181 | B = -7 | C = 102 | D = 104

Cn1cc(NC(=O)Nc2ccccc2F)c2ccccc2c1=O
  A = -32 | B = -8 | C = 84* | D = 79*

CC(=O)Nc1cccc(-c2cn3ccccc3n2)c1
  A = / | B = 10 | C = 104 | D = 98

Cc1ccc(S(=O)(=O)CC2CSc3nc(N)cc(=O)n32)cc1 (stereo unspecified)
  A = -9 | B = -12 | C = 101 | D = 102

O=C(OCC(=O)N1CCC(Cc2ccccc2)CC1)c1ccccc1
  A = -7 | B = / | C = 102 | D = 100

O=C(CCSc1ccccc1)NCCc1ccccc1
  A = -11 | B = -1 | C = 98 | D = 103

CC1(C)OC2C(CO)OC(n3ncc(=O)[nH]c3=O)C2O1 (stereo unspecified)
  A = -7 | B = -29 | C = 103 | D = 102

Cn1c(SCC(=O)Nc2ccccc2)nc2c(c1=O)SCC2
  A = 17 | B = -11 | C = 97 | D = 102

Continued.
Abbreviations – A = MbtI inh; B = Mtb MenB inh; C = PV pol inh; D = PV pol inh intensity
Cc1ccc(F)cc1NC(=O)[C@H](C)N1C(=O)C2CC=CCC2C1=O (stereo partly specified)
  A = -5 | B = -22 | C = 117 | D = 121

Cc1cccc(C)c1OCC(=O)Nn1c(=O)[nH]c2ccccc2c1=O
  A = -112 | B = -16 | C = 103 | D = 102

COc1ccc2[nH]c(=O)c(C(c3nnnn3Cc3ccccc3)N3CCc4ccccc43)cc2c1 (stereo unspecified)
  A = -11 | B = -6 | C = 101 | D = 102

N#CCOc1ccc(-c2ccccc2)cc1
  A = -17 | B = -13 | C = 100 | D = 104

O=C(COc1ccc2oc3c(c2c1)CCCC3)Oc1ccc(-c2nnco2)cc1
  A = 3 | B = -11 | C = 103 | D = 102

Cc1nc(N)oc1C
  A = -4 | B = 1 | C = 102 | D = 109

CCN1CCN(C(=O)c2cc3c(=O)n(Cc4ccc(OC)cc4)ccc3nc2C)CC1
  A = -19 | B = -15 | C = 103 | D = 101

Cc1nnc(C)n1/N=C/C(Cl)=C/c1ccccc1
  A = 6 | B = / | C = 102 | D = 100

O=C(NCc1nc(-c2cccnc2)n[nH]1)Nc1ccc(Cl)cc1C(F)(F)F
  A = -4 | B = -55 | C = 101 | D = 101

Cc1ccc2[nH]c(=O)c(CN(Cc3ccccc3)C(=O)N(C)C)cc2c1
  A = -1 | B = -25 | C = 102 | D = 103

The listing continues.
Abbreviations – A = MbtI inh; B = Mtb MenB inh; C = PV pol inh; D = PV pol inh intensity
C=CCNS(=O)(=O)CC12CCC(CC1=O)C2(C)C (stereo unspecified)
  A = -2 | B = / | C = 101 | D = 104

O=C(CSc1ncc(C(F)(F)F)cc1Cl)NCCN1C(=O)CSC1=O
  A = 8 | B = -1 | C = 106 | D = 105

COc1ccc(C(=O)NCCSc2nnnn2-c2ccccc2)cc1
  A = -7 | B = 2 | C = 99 | D = 103

CNC1=CC(=O)CC(c2ccccc2)C1 (stereo unspecified)
  A = 8 | B = 13 | C = 99 | D = 103

CNC(=O)c1ccc(Nc2nnc(C)c3ccccc23)cc1
  A = / | B = -13 | C = 104 | D = 103

COc1ccc2c(c1)c(=O)oc1c(C)c(OC(C(=O)O)c3ccccc3)ccc12 (stereo unspecified)
  A = 109 | B = -5 | C = 102 | D = 101

COCC(C)NCc1ccccc1OC (stereo unspecified)
  A = -16 | B = 0 | C = 100 | D = 101

Cc1cc2[nH]c(=O)c(=O)[nH]c2cc1S(=O)(=O)NCc1ccccc1
  A = 48 | B = -11 | C = 101 | D = 104

CCN(CC)c1ncnc2ccc(Br)cc12
  A = 18 | B = 9 | C = 101 | D = 102

CC(C)(C)c1cc(CN2CCN(CCC#N)CC2)cc(C(C)(C)C)c1O
  A = 10 | B = -32 | C = 103 | D = 98

More records
Abbreviations – A = MbtI inh; B = Mtb MenB inh; C = PV pol inh; D = PV pol inh intensity
Cc1nc2ccccn2c1-c1ccnc(SCC(=O)N(c2ccccc2)C2CCCCC2)n1
  A = -104 | B = 13 | C = 103 | D = 104

NNc1nc(OC(C(F)(F)F)C(F)(F)F)nc(N(c2ccccc2)c2ccccc2)n1
  A = 3 | B = -92 | C = 103 | D = 104

CCOC(=O)N1CCN(C(=O)CSc2ncnc3c2nnn3Cc2ccc(F)cc2)CC1
  A = 6 | B = -15 | C = 103 | D = 109

C/C(=N\NC(N)=O)c1ccc(NC(=O)c2ccc(F)cc2)cc1
  A = -3 | B = -14 | C = 101 | D = 98

c1ccc2c(c1)nnn2Cc1ccc(Cn2nnc3ccccc32)cc1
  A = -8 | B = -4 | C = 101 | D = 104

COc1ccc(-c2n[nH]c(=S)n2-c2ccccc2C)cc1OC
  A = 6 | B = -42 | C = 101 | D = 99

CCc1ccc(N2CCCCn3c2nc2c3c(=O)n(CCc3ccccc3)c(=O)n2C)cc1
  A = -1 | B = 2 | C = 101 | D = 100

COC(=O)c1ccc(CS(=O)(=O)c2ccc(OC)cc2)o1
  A = -9 | B = -23 | C = 103 | D = 107

CCC(=O)OCC(=O)Nc1nc2ccccc2s1
  A = 19 | B = -23 | C = 102 | D = 100

NC(=N/c1nc2ccccc2o1)/N=C/c1c(O)[nH]c(=O)[nH]c1=O
  A = -224 | B = -6 | C = 102 | D = 103

12 entries out of the list, ordered by SMILES length, ascending:
Abbreviations – A = MbtI inh; B = Mtb MenB inh; C = PV pol inh; D = PV pol inh intensity
COCC(C)NCc1ccccc1OC (stereo unspecified)
  A = -16 | B = 0 | C = 100 | D = 101

CCN(CC)c1ncnc2ccc(Br)cc12
  A = 18 | B = 9 | C = 101 | D = 102

CCC(=O)OCC(=O)Nc1nc2ccccc2s1
  A = 19 | B = -23 | C = 102 | D = 100

COC(=O)c1ccc(CS(=O)(=O)c2ccc(OC)cc2)o1
  A = -9 | B = -23 | C = 103 | D = 107

COc1ccc(-c2n[nH]c(=S)n2-c2ccccc2C)cc1OC
  A = 6 | B = -42 | C = 101 | D = 99

c1ccc2c(c1)nnn2Cc1ccc(Cn2nnc3ccccc32)cc1
  A = -8 | B = -4 | C = 101 | D = 104

C/C(=N\NC(N)=O)c1ccc(NC(=O)c2ccc(F)cc2)cc1
  A = -3 | B = -14 | C = 101 | D = 98

CC(C)(C)c1cc(CN2CCN(CCC#N)CC2)cc(C(C)(C)C)c1O
  A = 10 | B = -32 | C = 103 | D = 98

Cc1cc2[nH]c(=O)c(=O)[nH]c2cc1S(=O)(=O)NCc1ccccc1
  A = 48 | B = -11 | C = 101 | D = 104

CCOC(=O)N1CCN(C(=O)CSc2ncnc3c2nnn3Cc2ccc(F)cc2)CC1
  A = 6 | B = -15 | C = 103 | D = 109

Cc1nc2ccccn2c1-c1ccnc(SCC(=O)N(c2ccccc2)C2CCCCC2)n1
  A = -104 | B = 13 | C = 103 | D = 104

CCc1ccc(N2CCCCn3c2nc2c3c(=O)n(CCc3ccccc3)c(=O)n2C)cc1
  A = -1 | B = 2 | C = 101 | D = 100

The list continues:
Abbreviations – A = MbtI inh; B = Mtb MenB inh; C = PV pol inh; D = PV pol inh intensity
NC(=O)OCC(O)COc1ccc(Cl)cc1 (stereo unspecified)
  A = -8 | B = -9 | C = 102 | D = 101

CC1(C)C2CC=C(/C=N/NC(=O)Cc3cn4ccsc4n3)C1C2 (stereo unspecified)
  A = -10 | B = -7 | C = 102 | D = 100

CCn1c(=O)cc(SCC(=O)Nc2cccc(C#N)c2)c2ccccc21
  A = -10 | B = -2 | C = 99 | D = 101

O=c1cnnc2sc(SCc3ccccc3)nn12
  A = -5 | B = -5 | C = 103 | D = 101

O=C(Nn1cnc2ccccc2c1=O)c1ccccc1
  A = -4 | B = 9 | C = 104 | D = 108

CC(=O)Nc1ccc(S(=O)(=O)Nc2cc(C)nc(C)n2)cc1
  A = -8 | B = -20 | C = 106 | D = 100

COc1ccc(-c2nnc3ccc(Cl)nn23)c(OC)c1
  A = / | B = -22 | C = 102 | D = 97

O=C(CCc1ccccc1O)N1CCN(c2ncccn2)CC1
  A = 7 | B = -17 | C = 109 | D = 123

O=C(O)CCN1C(=O)C(=O)/C(=C(/O)c2ccccc2)C1c1ccccc1 (stereo unspecified)
  A = -3 | B = -27 | C = 99 | D = 96

CCOC(=O)c1cnc2ccc(C)cc2c1Nc1ccc(N2CCOCC2)cc1
  A = 12 | B = -63 | C = 101 | D = 105

In another format: two of the compounds above
compound	MbtI inh	Mtb MenB inh	PV pol inh	PV pol inh intensity
CC(=O)Nc1ccc(S(=O)(=O)Nc2cc(C)nc(C)n2)cc1	-8	-20	106	100
COc1ccc(-c2nnc3ccc(Cl)nn23)c(OC)c1	/	-22	102	97

Later entries
Abbreviations – A = MbtI inh; B = Mtb MenB inh; C = PV pol inh; D = PV pol inh intensity
COc1ccc(-c2noc(N(C)CC(=O)Nc3ccccc3OC)n2)cc1
  A = -2 | B = 1 | C = 101 | D = 102

Cc1ccc2c(c1)N(CCC(=O)O)C(=O)CO2
  A = -3 | B = 2 | C = 100 | D = 102

COC(=O)C1C(c2ccccc2)C(C(=O)OCc2ccco2)C1c1ccccc1 (stereo unspecified)
  A = -11 | B = -23 | C = 100 | D = 103

CCCS(=O)(=O)NCc1ccco1
  A = 5 | B = 4 | C = 99 | D = 101

CCS(=O)(=O)N1CCC(C(=O)N2CCOCC2)CC1
  A = -7 | B = 4 | C = 99 | D = 105

COc1ccc2c(c1)CN(CCc1ccc(Cl)cc1)CO2
  A = 3 | B = 11 | C = 101 | D = 104

COc1ccc(N(C)C(=S)Nc2ccc3nc(-c4ccco4)c(-c4ccco4)nc3c2)cc1
  A = 51 | B = -57 | C = 95 | D = 113

CN(C)/N=C/c1ccc(OC(=O)c2ccco2)cc1
  A = 6 | B = 13 | C = 103 | D = 100

O=C(CSc1nc2ccccc2s1)n1c2ccccc2c2ccccc21
  A = -2 | B = -14 | C = 102 | D = 106

CC(C)CC1NC(=O)N(CCCCN2C(=O)c3ccccc3C2=O)C1=O (stereo unspecified)
  A = 4 | B = -19 | C = 104 | D = 110

(continued)
Abbreviations – A = MbtI inh; B = Mtb MenB inh; C = PV pol inh; D = PV pol inh intensity
CCC(=O)c1cn(CC(=O)NCCOc2ccc(Cl)cc2)c2ccccc12
  A = 29 | B = -15 | C = 101 | D = 107

CCc1ccc(CNC(=O)CCn2c(=O)oc3ccccc32)cc1
  A = 7 | B = -3 | C = 103 | D = 103

O=C(NC1CCCCCC1)c1cccc(N2CCCC2=O)c1
  A = 8 | B = 10 | C = 102 | D = 98

CCCC1(C(=O)OCC)NC(c2ccc(N(C)C)cc2)C2C(=O)N(c3ccc(OCC)cc3)C(=O)C21 (stereo unspecified)
  A = -1 | B = -28 | C = 103 | D = 106

CSc1ccc(C2CC(=O)N3CN(C)CSC3=C2C#N)cc1 (stereo unspecified)
  A = 92* | B = -22 | C = 99 | D = 99

CCOC(=O)C1CCN(C(=S)NC2Cc3ccccc3C2)CC1
  A = 8 | B = -28 | C = 100 | D = 99

CC(C)(C)c1ccc(C(=O)NCCc2ccccn2)cc1
  A = -7 | B = 6 | C = 102 | D = 108

CCN(CC)S(=O)(=O)c1ccc(S(=O)(=O)N2CCN(C)CC2)cc1
  A = -16 | B = -1 | C = 101 | D = 104

COCc1cc(=O)[nH]c(Nc2nc3ccccc3s2)n1
  A = / | B = -10 | C = 104 | D = 109

O=C(CN1CCN(Cc2nc3ccccc3s2)CC1)N1CCc2ccccc21
  A = -9 | B = -32 | C = 108 | D = 101

Further records follow:
Abbreviations – A = MbtI inh; B = Mtb MenB inh; C = PV pol inh; D = PV pol inh intensity
CC(C)CC(=O)Nc1ccccc1-c1nnn(CC(=O)N2CCc3ccccc3C2)n1
  A = -1 | B = -25 | C = 101 | D = 103

Cc1ccc(C2=NNC(=O)CC2)cc1
  A = 6 | B = 9 | C = 101 | D = 101

CCn1cc(C(=O)O)cn1
  A = -4 | B = 7 | C = 101 | D = 103

O=C(NCCCn1ccnc1)c1cc2c(s1)CCCC2
  A = -9 | B = / | C = 103 | D = 107
